Bioassay records from PubChem BioAssay.
Vaccinia mCherry – inhibitors of vaccinia virus infection (mCherry reporter signal) | Vaccinia virus mCherry reporter infection, fluorescence; about a quarter of the inactives have no number | Potency, µM (series often up to 36.5 µM), without a hit: top-dose activity change, negative = inhibition, most hits filed as inhibitors | 0.63% of 310,000 active; active = well fitted inhibition curve with a large enough effect; inconclusive = small, poorly fitted or top-dose-only effect; inactive = no such curve, though single readings can be large or run the other way; tested in A549 cells; further: nearly all actives have a fitted effect of over 35% in size; inactives centre near -10
VACV Venus inh – vaccinia inhibition (Venus reporter); Vaccinia virus Venus reporter expression, fluorescence; Potency, µM (top dose mostly 36.5 µM), for the others: at the top dose activity change, negative = inhibition, most hits filed as inhibitors; 0.46% of 330,000 active; active means well fitted inhibition curve with a large enough effect; inconclusive means small, poorly fitted or top-dose-only effect; inactive means no such curve, though single readings can be large or run the other way; tested in A549 cells; further: nearly all actives have a fitted effect of over 30% in size; inactives centre near -10
Starred values were filed as active, the others as inactive; i = inactive; ? = inconclusive; · = no result given; & = joins results of further samples; [ ] = another dose, or the depositor's remark. On the % scale 0 is the no-effect control and ±100 the full control effect; potency means the concentration at half of the fitted maximal effect.

Order of values: Vaccinia mCherry	VACV Venus inh
CC(C)(C)NC(=O)CN1C(=O)c2cccc3cccc1c23
    -3%	-11%
COc1cc(NC(=O)CCn2c(=O)oc3ccccc32)cc(OC)c1OC
    -16%&0%	-7%&-7%
CCC(=O)N1c2ccccc2CC1C(=O)N1CCN(c2ccccc2F)CC1 (stereo unspecified)
    -1%	-2%
COc1ccc(OC)c(NC(=O)c2oc(=O)c3ccccc3c2-c2ccccc2)c1
    -9%	-2%
Cc1ccc(S(=O)(=O)Nc2cccc(C(=O)NCC(C)(C)N3CCOCC3)c2)cc1F
    i	-11%
O=C1CC(c2ccccc2)Cc2nc3ncnn3cc21 (stereo unspecified)
    -13%	-28%
O=C(CSCc1nc2cccnc2n1C1CCCCC1)NCc1cccc(Br)c1
    i	-10%
COc1ccc2nc(SCC(=O)Nc3ccccc3C#N)[nH]c2c1
    ·	-8%
c1cc(-c2cc3nc(NCC4CC4)ccn3n2)ccc1OCCN1CCOCC1
    i	-1%
COc1ccc(S(=O)(=O)N2CCSC2c2ccc(N)cc2)cc1 (stereo unspecified)
    -1%	-8%
CCNS(=O)(=O)c1ccc(NC(=O)Nc2cc(C)ccc2OC)cc1
    i	-15%
CN(C)S(=O)(=O)c1ccc(N2CCN(S(=O)(=O)c3ccc(F)cc3)CC2)c(Cl)c1
    10µM*	10µM*
CCC1CCCCN1C(=O)c1sc2ncnc(N(CC)CC)c2c1C (stereo unspecified)
    i	-17%
CS(=O)(=O)N(CCC#N)Cc1ccco1
    i	5%
Cc1cc(S(=O)(=O)NC2CCCCC2)ccc1OCC(=O)NCc1ccccn1
    ·	?
O=[N+]([O-])/C=C\c1ccc(N2CCCC2)c(F)c1
    ?	-20%
CCn1c(C(C)NC(=O)c2ccccc2C)n[nH]c1=S (stereo unspecified)
    i	8%
Cc1ccc(Nc2c(-c3ccc(O)cc3)nc3cccc(C)n23)cc1
    -25%	-17%
Oc1ccccc1/C=N/NC(=S)NCCc1ccccc1
    ?	-19%
CCOc1ccc(Nc2nc(N)nc(CN3CCN(c4ccccc4F)CC3)n2)cc1
    -28%	?
CC(C)(C)OC(=O)N1CCC(c2c(C(=O)NCCCN3CCc4ccccc4C3)cnn2-c2ccccc2)CC1
    -16%	-11%
O=S(=O)(NCCc1csc(-c2cccnc2)n1)c1ccc(Cl)s1
    12%	-16%
CCCCN(CC)CCCNC(=O)c1cc2c(-c3ccc(OC)c(OC)c3)nn(C)c2s1
    -7%	-27%&-20%
Cc1cccc(C)c1NC(=O)C(CCc1ccccc1)N1CCC(c2ccccc2)CC1 (stereo unspecified)
    -19%	0%
CCOC(=O)C1=C(C)Nc2nnnn2C1c1ccc(OC)c(Br)c1 (stereo unspecified)
    13%	2%
CC(C)CCOc1ccc(C2(C)NC(=O)N(CN3CCOCC3)C2=O)cc1 (stereo unspecified)
    ·	-23%
Oc1cc(O)c(/C=C/c2ccnc3ccccc23)c(O)c1
    29%	-3%
CC(=O)Nc1ccc(S(=O)(=O)NCc2cccn2Cc2cccc(C)c2)cc1
    -4%	-23%
COc1ccc(-c2nc(=S)[nH][nH]2)cc1OC
    -29%	-23%
NC(=O)c1nsc(C(=O)N(CC(=O)NC2CCCCC2)Cc2ccc3c(c2)OCO3)c1N
    -23%	-16%

In another format: 4 of the compounds above
Cc1cccc(C)c1NC(=O)C(CCc1ccccc1)N1CCC(c2ccccc2)CC1 (stereo unspecified)
  Vaccinia mCherry: -19%	VACV Venus inh: 0%

CCOC(=O)C1=C(C)Nc2nnnn2C1c1ccc(OC)c(Br)c1 (stereo unspecified)
  Vaccinia mCherry: 13%	VACV Venus inh: 2%

CC(C)CCOc1ccc(C2(C)NC(=O)N(CN3CCOCC3)C2=O)cc1 (stereo unspecified)
  Vaccinia mCherry: ·	VACV Venus inh: -23%

Oc1cc(O)c(/C=C/c2ccnc3ccccc23)c(O)c1
  Vaccinia mCherry: 29%	VACV Venus inh: -3%

Next section:
Order of values: Vaccinia mCherry	VACV Venus inh
COC(=O)c1cc(=O)n(Cc2ccc(OC)c(OC)c2)c(=Nc2ccc(F)cc2)s1
    2%	-4%
CC1CCCN(S(=O)(=O)c2ccc(NC(=O)C3CC(=O)N(c4ccccc4)C3)cc2)C1 (stereo unspecified)
    -19%	-21%
O=C(NC1CC1)C1CCN(C2CCN(C(=O)Cc3ccc(F)cc3)CC2)CC1
    -11%	-6%
CCOC(=O)C1(Cc2ccc(OC)cc2)CCN(C(=O)C2CC(=O)N(C3CC3)C2)CC1 (stereo unspecified)
    -8%	-6%
CS(=O)(=O)c1ccc2nc(NC(=O)CN3CCOCC3)sc2c1
    i	-26%
ClC/C=C/C[n+]1ccccc1Cl
    17%	-4%
COc1cc2nc(CN(CCO)C3CS(=O)(=O)CC3O)nc(N3CCCCC3)c2cc1OC (stereo unspecified)
    -12%	-11%
Cc1cccc(C)c1NC(=O)C1c2ccccc2OCC(=O)N1CCc1c[nH]c2ccccc12 (stereo unspecified)
    i	-2%
Cc1c(NC(=O)CN(c2ccccc2)S(=O)(=O)c2ccc(F)cc2)c(=O)n(-c2ccccc2)n1C
    -21%	-16%
CCOc1ncccc1C(=O)N1CCN(C(=O)c2ccccc2)CC1
    i	-6%
CCC(=O)N1CC(=O)Nc2ccc(F)cc2C1c1ccccc1 (stereo unspecified)
    ?	-8%
CSc1ccc(C(=O)C2CCCN(C(=O)c3csc(C(C)=O)c3)C2)cc1 (stereo unspecified)
    -7%	1%
COc1cc(OC)cc(-c2cc3nc(C)c(CCC(=O)Nc4ccc(F)c(Cl)c4)c(C)n3n2)c1
    -20%	-15%
Cc1ccc(SCCNC(=S)Nc2cc(C)ccc2C)cc1
    -18%	-12%
O=C(CN1C(=O)C2(SCC(=O)N2c2ccccc2)c2ccccc21)NCc1ccccc1 (stereo unspecified)
    -7%	0%
CN1CCN(c2cc(=O)n(Cc3ccc(F)cc3)c(=O)[nH]2)CC1
    29%	-4%
COc1cccc(N(CC(=O)NCCN2CCOCC2)S(=O)(=O)c2ccccc2)c1
    -8%	-4%
O=C(NCc1nc(-c2ccccc2)no1)c1ccc(Br)o1
    -17%	-8%
COc1ccc(/C=N/NC(=O)c2nnn(-c3nonc3N)c2-c2cccs2)c(OC)c1
    -22%	-16%
COc1ccccc1C(=O)NC1CCSc2ccccc21 (stereo unspecified)
    i	-4%
Cc1ccc(-c2nnc(OCCN3CCOCC3)c3ccccc23)cc1
    ?	?
Cn1c(=O)c2c(SCC(=O)Nc3ccccc3F)nc(C3CC3)nc2n(C)c1=O
    i	-11%
COc1ccc(C2CC(c3cccs3)=NN2C(=O)CSc2nc3ccccc3s2)cc1 (stereo unspecified)
    i	-9%
Clc1ccc(NCc2nnc3n2CCCCC3)cc1
    ·	-19%
COc1ccc(C(=O)COC(=O)c2ccccc2C(=O)N(C)c2ccccc2)c(OC)c1
    0%	-16%
COc1ccc2oc(=O)c(C(=O)n3ccc(C)n3)cc2c1
    -1%	3%
CN(C(=O)c1ccc2c(c1)N(Cc1ccc(F)cc1)C(=O)c1ccccc1S2(=O)=O)C1CCCCC1
    -8%	-8%
COc1ccc(CCNCCC(c2ccccc2)c2ccccc2)cc1OC
    i	-12%
COc1ccc(S(=O)(=O)CCC(=O)Nc2cc(C)ccc2OC)cc1
    -2%	-4%
CCN1/C(=C(\O)c2ccccc2)C(=O)c2ccccc2S1(=O)=O
    -25%	?
CCc1ccc(OCC(=O)Nc2ccc(S(=O)(=O)Nc3ccccn3)cc2)cc1
    5%	-12%
COc1ccc(-c2cc(C(F)(F)F)nc(SCC(=O)NCc3ccc(Cl)cc3)n2)cc1
    -4%	?
CC1CC(C)CN(C(=O)c2cc3c(=O)n4ccccc4nc3s2)C1 (stereo unspecified)
    i	-8%
CCc1ccccc1NC(=O)CCNS(=O)(=O)c1cc(Br)cnc1N
    12%[7.34 µM]	19%[7.34 µM]
O=C(CNS(=O)(=O)c1ccc(Br)s1)N1CCN(c2ccc(F)cc2)CC1
    -23%&-22%	-25%&-12%
Cc1ccc2nc(-c3cccc(S(=O)(=O)N4CC(C)OC(C)C4)c3)cn2c1 (stereo unspecified)
    -2%[7.34 µM]	-25%[7.34 µM]
CCOC(=O)c1cnc2cc(F)c(F)cc2c1N1CCOCC1
    -2%	-6%
CCOC(=O)NN1C(=O)c2ccccc2NC1c1cccc(O)c1 (stereo unspecified)
    -24%	-5%
O=C(CCn1[nH]c(=O)c2ccccc2c1=O)N1CCOCC1
    -23%[1.46 µM]	-10%
CCOC(=O)N1CCC(N(C(=O)Nc2cccc(OC)c2)C(C)CC)CC1 (stereo unspecified)
    i	-9%
O=C(CCN1C(=O)c2ccccc2C1=O)NC(=S)Nc1ccccc1Cl
    -2%	-16%
COc1ccc(CC2SC(N)=NC2=O)cc1 (stereo unspecified)
    -10%	-4%
Cc1ccccc1-n1c(N)cc(=O)[nH]c1=S
    -11%	-1%
COCc1cc(C)nc(SCC(=O)NCC2CCCO2)c1C#N (stereo unspecified)
    i	0%
COc1ccccc1CNC(=O)C(CC(C)C)NS(=O)(=O)c1ccc2c(c1)oc(=O)n2C (stereo unspecified)
    -11%&-19%	-9%&-18%

A section from further up, as a working copy:
Order of values: Vaccinia mCherry	VACV Venus inh
O=C(CCn1[nH]c(=O)c2ccccc2c1=O)N1CCOCC1
    -23%[1.46 µM]	-10%
CCOC(=O)N1CCC(N(C(=O)Nc2cccc(OC)c2)C(C)CC)CC1 (stereo unspecified)
    i	-9%

Additional records
Order of values: Vaccinia mCherry	VACV Venus inh
O=C1c2ccccc2NC(c2ccccc2OCc2ccccc2)N1Cc1ccco1 (stereo unspecified)
    6%	-6%
CCOc1ccc(-c2cn(-c3ccc(OC)cc3)c(SC)n2)cc1
    -27%	-23%
Cc1ccc(-c2nnn(CC(=O)N(CC(=O)NC(C)C)c3cnc4ccccc4c3)n2)o1
    ?	-13%
Cc1nc2c([nH]c3ccccc32)c(=O)n1N
    -12%	-5%
O=c1cc(-c2cccnc2)oc2c1ccc1ccccc12
    -5%	-2%
Cc1cccc(C)c1NC(=S)N1CCOCC1
    -10%	-4%
COC(=O)c1sc(-c2ccccc2)cc1NC(=O)c1ccccc1
    -14%	-4%
CC(C)(C)c1ccc(S(=O)(=O)/C=C/C#N)cc1
    -15%	-22%
Cc1cccc(NC(=S)NN(Cc2ccccc2)c2ccccc2)c1C
    -6%	-7%
Cc1ccc(C(=O)N2CCN(c3ccc(C(F)(F)F)cn3)CC2)cc1
    -15%	-16%
CC(C)(C)C(=O)C(Oc1cccc2nonc12)n1cncn1 (stereo unspecified)
    -1%	-15%
CCCc1cc(C(=O)NNC(=S)NCC2CCCO2)cs1 (stereo unspecified)
    i	-2%
N#Cc1c2n(c3c(=O)n(CC(=O)c4ccc([N+](=O)[O-])cc4)cnc13)CCCCC2
    -9%	-12%
COC(=O)c1sccc1NC(=S)Nc1ccc(OC)cc1
    4%	-12%
NS(=O)(=O)c1ccc(CCNC(=O)c2ccc3c(c2)OCCO3)cc1
    -12%	-7%
O=C1Nc2ccc(I)cc2/C1=C/c1cc(Br)c(O)c(Br)c1
    i	-12%
O=C(Nc1ncc([N+](=O)[O-])s1)C1CCN(S(=O)(=O)c2cnc[nH]2)CC1
    -15%	-8%
COC(=O)c1ccc(CSc2c(C(C)C)cnc3c2c(=O)n(C)c(=O)n3C)cc1
    -6%	-6%
CC(C)C[C@H]1CN(CCCC[C@@H]2CNC(=O)C(=O)N2CCc2ccccc2)C(=O)C(=O)N1CCc1ccccc1
    5%	7%
C=CCOC(=O)C1=C[C@H](c2ccc(Br)cc2)[C@@H](CCCO)[C@H](OCC)O1
    -3%	-18%
C/C(=N\N=C1\NC(=O)C(CC(=O)Nc2ccc(C)c(Cl)c2)S1)C(C)(C)C (stereo unspecified)
    i	-11%
CCc1nc2c(OCCOc3ccccc3)cccn2c1N(C=O)Cc1ccc(OC)cc1
    -10%	-1%
CC(C)NC(=S)N/N=C/c1cccnc1
    i	19%
CC(=O)Nc1ccc(NC(=O)C2CCCN(C(=O)c3ccc(Cl)cc3)C2)cc1 (stereo unspecified)
    -20%	-9%
Cc1cc(C)cc(NC(=O)N2CCC(NC(=O)c3ccc(F)cc3)CC2)c1
    -14%	-6%
CCOc1ccc(/C=N/NC(=O)c2ccccc2Cl)cc1CN1CC2CC(C1)c1cccc(=O)n1C2 (stereo unspecified)
    -4%	-14%
CC1CCN(S(=O)(=O)c2cccc(C(=O)NCc3cccs3)c2)CC1
    ·	-13%
O=C(O)c1ccccc1SCc1cn2cc(Br)ccc2n1
    -19%	-13%
Cc1cc(C)cc(Oc2coc3cc(OCC(=O)NC4CCCCC4)ccc3c2=O)c1
    -15%	?
CCN(CC)c1ncnc2c1ncn2[C@H]1CN(Cc2ccc3c(c2)OCO3)C[C@@H](CO)O1
    i	-9%
CCOc1ccccc1NC(=O)CN1CCC(NC(=O)c2ccccc2)CC1
    ·	-21%
Cc1cc(C(=O)CSc2ccc3c(c2)OCCO3)c(C)n1C1CC1
    -9%	-2%
O=C(N/N=C/CCc1ccccc1)C1CCCCC1
    i	1%
